D2 potentiator – potentiates the human D2 dopamine receptor allosterically; DiscoveRx D2 beta-arrestin cells, luminescence, 90 min; 100% = 57 uM dopamine signal; P14416; potentiation, % (no concentration beside the values); AID 624464; 0.23% of 360,000 active; active = potentiation of 50% or more; inconclusive = 30% to 50%; inactive = 30% or less;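 further: compound concentration not given in the record; tested on top of an EC20 dose of dopamine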
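D2 cells co-treated with compound plus 50 nM dopamine (EC20) for 90 min at 37 deg C to detect potentiation. Beta-arrestin recruitment was read as enzyme-fragment luminescence after 1 h at ambient temperature. Full response was set by 57 uM dopamine.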
D2 agonist – agonists of human D2 dopamine receptor (beta-arrestin); P14416; DiscoveRx PathHunter D2 beta-arrestin, luminescence, 90 min; 100% = 57 uM dopamine signal; AID 624465; 0.084% of 360,000 active; activation, % (test concentration not listed); in the data active = activation above about 40%; inconclusive = about 15% to 40%; inactive = below about 15%; further: compound concentration not given in the record; the text of the record calls up to 30% inactive
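Agonist mode: compounds alone added to overnight-plated D2 PathHunter cells for 90 min at 37 C, with 57 uM final dopamine (EC100) defining full response. Beta-arrestin recruitment detected by chemiluminescent reagent, read after 1 h at ambient temperature.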
PINK1 modulator – PINK1 expression modulation | Potency, µM (highest dose often 76.6 µM), for the others: top-dose activation (PINK1 increase), most hits filed as activators | 0.2% of 410,000 active | PINK1 immunofluorescence, high-content cytometry, 24 h | AID 624263; active = well fitted activation curve with a large enough effect; inconclusive = small, poorly fitted or top-dose-only effect; inactive = flat fitted curve, though single readings scatter; cell line not stated here;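 further: potency means the concentration at half of the fitted maximal effect; % of control where 0% means no effect; nearly all actives have a fitted effect of over 65% in size; a mitochondrial uncoupler was the plate control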
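Decision-based qHTS: stable cells, 24 h exposure to five compound concentrations, CCCP as control. Fixed cells stained for PINK1 plus nuclear, mitochondrial and cell markers, cytometer read.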
Six1-Eya2 blk – Six1/Eya2 interaction inhibition | activity change, % (no concentration beside the values) | AlphaScreen GST-Six1/His-Eya2 binding, biochemical; active compounds read low; control for the full effect not named in the record | 0.56% of 360,000 active | Q15475+O00167; in the data active = activity change below about -65%; inconclusive = about -30% to -65%; inactive = above about -30%; further: on the % scale 0 is the no-effect control and ±100 the full control effect
Target sequence (O00167 whole entry, looked up): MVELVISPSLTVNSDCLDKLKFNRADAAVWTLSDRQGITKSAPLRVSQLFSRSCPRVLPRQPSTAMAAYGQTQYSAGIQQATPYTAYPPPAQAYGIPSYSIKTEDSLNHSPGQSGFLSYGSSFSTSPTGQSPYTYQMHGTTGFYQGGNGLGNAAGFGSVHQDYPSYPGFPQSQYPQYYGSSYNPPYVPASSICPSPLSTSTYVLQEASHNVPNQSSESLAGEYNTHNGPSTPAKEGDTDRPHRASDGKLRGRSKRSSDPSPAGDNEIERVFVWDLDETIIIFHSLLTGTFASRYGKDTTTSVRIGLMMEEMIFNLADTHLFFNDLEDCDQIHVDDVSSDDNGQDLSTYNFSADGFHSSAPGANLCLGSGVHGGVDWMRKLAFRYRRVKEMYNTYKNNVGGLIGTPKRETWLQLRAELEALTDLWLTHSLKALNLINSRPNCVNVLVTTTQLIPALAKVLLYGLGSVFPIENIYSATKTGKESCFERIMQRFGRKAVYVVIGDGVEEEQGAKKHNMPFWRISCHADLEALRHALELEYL
Target sequence (Q15475 whole entry, looked up): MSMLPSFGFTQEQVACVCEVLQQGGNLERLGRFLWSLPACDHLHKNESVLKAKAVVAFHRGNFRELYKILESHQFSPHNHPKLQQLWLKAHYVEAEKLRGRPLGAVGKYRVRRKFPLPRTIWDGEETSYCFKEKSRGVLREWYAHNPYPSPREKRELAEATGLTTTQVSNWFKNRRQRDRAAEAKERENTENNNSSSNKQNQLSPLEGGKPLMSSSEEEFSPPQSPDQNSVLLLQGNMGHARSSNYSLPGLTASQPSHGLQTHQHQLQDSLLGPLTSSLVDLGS
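Compounds are tested against tagged Six1 and Eya2 proteins bridged by glutathione donor and nickel acceptor beads; after a one-hour incubation at 37 °C without light, AlphaScreen emission is recorded.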
TRPV1 PAM – human TRPV1 potentiation. TRPV1-expressing cells, Fluo-8 calcium influx, capsaicin EC20 potentiation; host cell line not named in the record; control for the full effect not named in the record. potentiation, % at 8.33 µM. 0.02% of 320,000 active; active means potentiation above 80%; inconclusive means 30% to 80%; inactive means below 30%; further: 0% is about no effect
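TRPV1-expressing cells were cultured overnight at 35.5C and loaded with Fluo-8 calcium dye for 40 to 90 min at room temperature. After a 10 s baseline, compound was added and calcium influx was read kinetically for 3 min (ex 480/em 520 nm).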
CtBP-E1A blk – blocks the CtBP interaction with E1A. 0.49% of 340,000 active. AID 651724. AlphaScreen GST-E1A/His-CtBP binding, 1536-well; active compounds read low; control for the full effect not named in the record. activity change, % (concentration not given with the values); in the data active means activity change below about -65%; inconclusive means about -30% to -65%; inactive means above about -30%; further: on the % scale 0 is the no-effect control and ±100 the full control effect
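GST-E1A and His-tagged CtBP (125 nM each as 5X stock) were preincubated with pin-transferred compound for 2 h at 37 °C in the dark, then glutathione donor and nickel acceptor beads were added for 1 h before AlphaScreen reading.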
Sfp inh – inhibitors of Bacillus subtilis Sfp phosphopantetheinyl transferase; Potency, µM, inactives show max response, negative = inhibition, usual class: inhibitors; Q9F4F7; Biochemical Sfp PPTase activity, qHTS; AID 1490; 3.5% of 310,000 active; active means well fitted inhibition curve with a large enough effect; inconclusive means small, poorly fitted or top-dose-only effect, or another doubt; inactive means no such curve, though single readings can be large or run the other way;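 further: the enzyme is Sfp with the accession as filed and its product quenches rhodamine fluorescence; potency means the concentration at half of the fitted maximal effect; 0% = enzyme reaction without inhibitor and -100% = no enzyme wells; top concentration of the series not given in the record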
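Compounds were incubated with enzyme (final 15 nM) for 15 min at room temperature before substrate addition started the reaction. Fluorescence at 525 nm excitation, 598 nm emission was recorded immediately and after 30 minutes.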
Numbers without * were called inactive; u = inconclusive; x = not tested or not shown; [ ] = another dose, or the depositor's remark.

SMILES | D2 potentiator | D2 agonist | PINK1 modulator | Six1-Eya2 blk | TRPV1 PAM | CtBP-E1A blk | Sfp inh
O=C(c1c(F)cccc1Cl)N(Cc1ccco1)C1CCS(=O)(=O)C1 (stereo not drawn) | -9 | -4.1 | 0.9% | 9 | x | 3 | x
C/C(CCc1ccccc1)=N\NC(=O)C1C2CCCCC21 (stereo not drawn) | -9 | -3.8 | 0.7% | -5 | -8 | 12 | -14%
O=C(Nc1cccc2ccccc12)OC1C=CS(=O)(=O)C1 (stereo not drawn) | -10 | -3.9 | -1.3% | 0 | -25 | 1 | 4%
CC(C)[C@H](NC(=O)[C@@H]1CSC2c3ccccc3C(=O)N21)C(=O)NC1CCCC1 (stereo partly drawn) | -1 | -1.5 | -0.4% | -1 | 9 | x | 15%
CC1CC(C)CN(C(=O)c2cc3c(s2)CCC3)C1 (stereo not drawn) | -13 | -0.3 | 2.2% | 8 | -15 | 16 | 0%
NC(=O)C1CCN(C(=O)NC(=O)c2ccccc2)CC1 | -15 | -1.7 | -0.3% | 4 | 3 | 7 | 6%
COc1ccccc1NC(=O)c1ccc(-n2ccnc2)c([N+](=O)[O-])c1 | 2 | 0.1 | 0.6% | -15 | -16 | -15 | 3%
S=C(NCCc1ccccc1)NC1CC1 | 7 | -2.0 | 0.2% | -13 | -3 | 5 | 16%
Oc1ccc(Br)cc1/C=N/NC(=S)NCCc1ccccc1 | -2 | -1.4 | -3.3% | -24 | 3 | -19 | -8%
CC(Oc1ccc(Cl)cc1)C(=O)Nc1ccc(S(=O)(=O)N2CCOCC2)cc1 (stereo not drawn) | -5 | -0.2 | -0.4% | -6 | -7 | 8 | 11%
O=C(COc1ccc(Cl)cc1Cl)NCCN1CCCC1 | -22 | -1.6 | 1.0% | 2 | x | -1 | x
COc1ccc(N/C=C\C(=O)c2ccc(C)cc2)cc1OC | -5 | 0.9 | 9.0% | 2 | 2 | -7 | 21%
O=C(Nc1nnc(SCc2ccccc2)s1)c1cccs1 | -2 | -2.3 | 0.8% | -3 | 1 | -2 | 28%
CC(C)C(NC(=O)c1ccccc1F)C(=O)Nc1ccc2c(c1)OCO2 (stereo not drawn) | -7 | -5.1 | 0.6% | -1 | 0 | x | 3%
Fc1cc(Cl)cc2ccc(-c3ccccc3)nc12 | 2 | -1.9 | 2.7% | 41 | x | 63 | x
CCNC(=O)Cn1cnc2c1c(=O)n(C)c(=O)n2C | -12 | -1.1 | -1.5% | 4 | u | 1 | 10%
NS(=O)(=O)c1ccc(NC2=CC(c3ccc(F)cc3)N(c3ccc(S(N)(=O)=O)cc3)C2=O)cc1 (stereo not drawn) | -23 | -7.6 | 1.0% | -21 | 22 | -19 | -3%
CCn1cc(-c2ccccc2)c(C(=O)O)c1-c1ccc(OC)cc1 | -23 | 0.9 | 0.4% | -6 | -16 | 5 | x
COC(=O)/C=C/S(=O)(=O)c1ccc(NC(C)=O)cc1 | -13 | -1.5 | x | 1 | -5 | -6 | u
CCC(=O)Nc1c(C(=O)Nc2ccc3c(c2)OCCO3)oc2ccccc12 | -6 | 3.3 | 0.1% | 2 | 4 | -2 | -7%

Quoted from the listing:
D2 agonist with COc1ccccc1NC(=O)c1ccc(-n2ccnc2)c([N+](=O)[O-])c1 stands at 0.1
D2 potentiator with CCNC(=O)Cn1cnc2c1c(=O)n(C)c(=O)n2C stands at -12
D2 potentiator with NS(=O)(=O)c1ccc(NC2=CC(c3ccc(F)cc3)N(c3ccc(S(N)(=O)=O)cc3)C2=O)cc1 (stereo not drawn) stands at -23
Six1-Eya2 blk with O=C(Nc1nnc(SCc2ccccc2)s1)c1cccs1 stands at -3
D2 agonist with Fc1cc(Cl)cc2ccc(-c3ccccc3)nc12 stands at -1.9

Back to the main list, repeating the two entries before the break.
SMILES | D2 potentiator | D2 agonist | PINK1 modulator | Six1-Eya2 blk | TRPV1 PAM | CtBP-E1A blk | Sfp inh
COC(=O)/C=C/S(=O)(=O)c1ccc(NC(C)=O)cc1 | -13 | -1.5 | x | 1 | -5 | -6 | u
CCC(=O)Nc1c(C(=O)Nc2ccc3c(c2)OCCO3)oc2ccccc12 | -6 | 3.3 | 0.1% | 2 | 4 | -2 | -7%
CCOC(=O)/C(C(=O)Nc1ccc(Br)cc1)=C1/NC(C)(C)Cc2ccccc21 | -9 | -1.6 | 30% | -5 | -25 | 4 | -11%
COc1ccc(N(CC(=O)NCCC2=CCCCC2)S(=O)(=O)c2ccc(C)cc2)cc1OC | -10 | 3.6 | 8.2% | 4 | -4 | -6 | -4%
CC1COCC(C)N1C(=O)c1cccnc1 (stereo not drawn) | -7 | -0.1 | 1.4% | 8 | x | -2 | x
CC(C)Cn1c(-c2ccco2)csc1=Nc1cccnc1 | 17 | 0.9 | 0.2% | -5 | 9 | -2 | u
Cc1cccc(-n2nc([N+](=O)[O-])c(=NC3CCN(Cc4ccccc4)CC3)n2O)c1 | 4 | 12 | 0.5% | u | -2 | -4 | 17%
COc1cc(-n2nc(C)c3c2OC(N)=C(C#N)C3c2ccccc2)c(Cl)c(Br)c1O (stereo not drawn) | -22 | -7.7 | 27% | u | 8 | u | 7%
COc1ccc(NC(=O)CN(C)S(=O)(=O)c2ccccc2)cc1 | -8 | -1.6 | 8.2%[38.3 µM] | 1 | 5 | 8 | 11%
COc1ccc(Cn2c(C3CCCCC3)nc3c(c(=O)c4ccccc4n3C)c2=O)cc1 | -16 | -2.9 | 12% | 3 | 19 | x | 9%
O=C1c2ccccc2C(=O)C1Cc1cccc2ccccc12 | 17 | 3.8 | 2.6%[38.3 µM] | 16 | 9 | 40 | -19%
CCOc1ccc(-n2ccnc2SCC(=O)Nc2cc(C)on2)cc1 | 18 | 3.8 | 8.3% | 3 | -2 | 11 | 5%
CCCCn1c(/N=C/c2ccccc2NS(=O)(=O)c2ccc(C)cc2)nc2ccccc21 | -21 | -3.2 | u | -6 | -8 | 8 | -14%
O=C(CSc1nnc(-c2ccccc2F)n1C1CC1)NC(=O)c1cccc([N+](=O)[O-])c1 | -11 | -2.0 | -1.6% | 3 | 0 | -5 | 14%
CC(NC(=S)NC1CCCCC1)c1ccc(C(C)(C)C)cc1 (stereo not drawn) | -13 | 11 | u | 17 | 8 | -16 | 26%
Cc1ccccc1N(CC(=O)Nc1ccccc1C(=O)NCc1ccco1)S(=O)(=O)c1ccccc1 | -19 | -2.3 | 0.8% | -9 | -5 | 18 | 20%
O=C(OCc1nnc(-c2ccccc2)o1)c1cc(Cl)ccc1[N+](=O)[O-] | 20 | 13 | -1.3% | -25 | -10 | 0 | -14%
CCC(C)(C)NC(=O)C(c1ccc(OC)cc1)N(C(=O)CCC(=O)Nc1cc(C)on1)c1cccc(OC)c1 (stereo not drawn) | -6 | -9.2 | 3.0% | 5 | 1 | 2 | -1%
Cc1ccccc1OCC(=O)NCCNC(=O)c1cccnc1 | -8 | 6.7 | -1.0% | 4 | 3 | 9 | 13%
CC(C)NC(=O)c1ccc(N(Cc2ccccc2)S(C)(=O)=O)cc1 | -21 | 1.8 | -1.4% | -3 | 2 | -3 | 17%
COc1ccccc1N=Nc1c(C)noc1C | -7 | -1.1 | 2.6% | -25 | x | -1 | 13%
CN1C(=O)[C@H]2[C@@H](/C=C/c3ccccc3)N3C(=O)CN(Cc4ccc(-c5ccccc5)cc4)C(=O)[C@@]3(C)[C@H]2C1=O | -7 | -2.8 | 2.0% | -17 | x | -7 | x
CCN(CC)S(=O)(=O)c1cc(NC(=S)NC(=O)C2CCCC2)ccc1C | -4 | 1.1 | 13% | -9 | x | 0 | x
COC(=O)CNC(=O)c1ccccc1[N+](=O)[O-] | -2 | 0.7 | x | 0 | x | -2 | x
COc1ccc(CCN2CC(C(=O)Nc3cc(S(C)(=O)=O)ccc3Cl)CC2=O)cc1OC (stereo not drawn) | -13 | -3.7 | 0.3% | 4 | 30 | -4 | x
CN(C)/C=C1\C(=O)N(c2ccc(F)cc2F)C(c2cccnc2)S1(=O)=O (stereo not drawn) | -9 | -5.8 | -2.5% | 1 | 7 | 0 | 4%
O=C(CN1CCN(c2ccccc2)CC1)c1ccc2cc[nH]c2c1 | -14 | -2.8 | 0.5% | 3 | -17 | -15 | u
CC1(C(=O)NS(=O)(=O)C2CC2)CCCN(C(=O)Cc2ccc(F)cc2)C1 (stereo not drawn) | -5 | -2.5 | 0.4% | 1 | x | 9 | x
CC(OC(=O)Cc1c(F)cccc1Cl)C(=O)NC1CCCCC1C (stereo not drawn) | -2 | -5.2 | 0.5% | -19 | -6 | x | x
Cc1occc1C(=O)Nc1ccc(S(N)(=O)=O)cc1 | -3 | 3.9 | -0.9% | 0 | 5 | x | -7%
COc1ccc(-c2csc(NC(=O)c3ccc(S(=O)(=O)N4CCc5ccccc5C4)cc3)n2)c(OC)c1 | -17 | -1.2 | -0.2% | 1 | -23 | -14 | 0%
O=C(COC(=O)C1CC2CCCC(C1)C2=O)NC(=O)c1ccc(OC(F)F)cc1 (stereo not drawn) | u | 2.9 | 0.9% | 7 | 11 | -6 | 10%
Cc1cccc(C)c1C(=O)N[C@@H](Cc1ccccc1)C(=O)O | -4 | -0.6 | -0.1% | 7 | 6 | 4 | 19%
O=C(Cc1ccc(F)cc1)NCCc1ccccc1 | -2 | -1.3 | x | 5 | -10 | 7 | 23%
CC(C)Nc1nc(SCC(N)=O)nc(N2CCOCC2)n1 | -4 | -0.1 | -1.1%[38.3 µM] | 1 | -3 | -1 | 16%
Cc1cc(C)c2[nH]c(=O)c(CN(Cc3nnnn3C3CCCC3)C3CCCCC3)cc2c1 | 7 | -0.9 | 6.6%[38.3 µM] | 4 | -5 | 2 | -20%
O=C(COc1ccccc1)OCc1cc2ccccc2[nH]c1=O | -5 | 0.9 | -1.4%[38.3 µM] | 0 | -7 | -9 | 18%
CCc1nn(CC(=O)NCCc2ccc(S(N)(=O)=O)cc2)c(=O)c2cc3sccc3n12 | -5 | 0.8 | 8.7% | 2 | 11 | -20 | -3%
Cc1ccc(NC(=O)NCCN2CCN(C(=O)Nc3ccc(C)cc3)CC2)cc1 | -9 | -0.5 | -1.4% | -6 | 1 | 1 | 14%
CCOC(=O)CSC(CC)C(=O)Nc1nnc(C(C)C)s1 (stereo not drawn) | -3 | 0.3 | 1.9% | 0 | 20 | -7 | -14%
CC(C)[C@H](NC(=O)c1cccc(S(=O)(=O)N2CCOCC2)c1)C(=O)Nc1nccs1 | -4 | 3.5 | -0.2% | 1 | 5 | 8 | 12%
CCN(Cc1ccccc1)C(=O)CSc1nc(C)cc2c1C(=O)OC2 | -8 | -3.8 | -0.1% | 1 | -13 | 0 | 10%
CC(C)CCN1CN(S(=O)(=O)c2cccs2)c2nc3ccccc3nc21 | -18 | -2.4 | 8.0% | 1 | 13 | 0 | -5%
